# Sa ugtP lethal: growth inhibition of ugtP-null S. aureus, primary screen, RN4220 ugtP deletion, OD600. 16 h; some inactives read as strong as hits. growth inhibition, % (concentration not given with the values). 0.54% of 330,000 active. AID 1259309, 2017;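 active = z-score under -3 and OD600 up to 0.15 on both plates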;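 also: plate controls were untreated wells for no effect and antibiotic for full effect; wells of about 80 µL received 100 nL stock; the first replicate is given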
# PrP 5UTR inh: inhibition of PrP 5' UTR reporter expression; AID 488862, 2010; cell-based PrP 5' UTR mRNA reporter, plate reader; inhibition, % (no concentration beside the values); 0.35% of 340,000 active;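 active = every replicate at 50% or more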;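 also: 0 = median of the neutral control wells; tested in H4 reporter cells; numbers are from one replicate; inactives centre near -14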
# Bead autofluor: flagged as autofluorescent in microsphere protease counterscreen; compound autofluorescence counterscreen, microsphere flow cytometry; hits give high values; fluorescence intensity (concentration not given with the values); 3.1% of 360,000 active;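 active = at least 3 SD above the mean of all compounds, about 16000 in these data; inconclusive = too few beads counted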;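 also: 100 nL of 1 mM stock went into each well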
# BJeLR lethal: MLPCN primary cell-based screen for lethality selective to Ras in HRASV12 cells; BJeLR (HRASV12) viability, CellTiter-Glo ATP luminescence, 48 h; reference of the scale not given here; inhibition, % (test concentration not listed); 0.17% of 300,000 active; AID 1554, 2009;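 active = replicate mean above 50%; inconclusive = above 50% but judged a plate artefact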;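 also: 50 nL library stock added to about 25 µL; numbers are from one replicate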
# Mtb hypoxia rep: PubChem AID 1159583; M. tuberculosis hypoxia-regulated fluorescent reporter, fluorescence; 0.1% of 300,000 active; fluorescence inhibition, % (no concentration beside the values);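 active = 35 to 45% if threefold the growth effect, above 45% if 1.5-fold the growth effect; inactive = the rest, general growth blockers included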;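 also: wells of about 50 µL received 100 nL stock; 0% = vehicle wells and 100% = reference inhibitor wells; whole bacteria with a GFP reporter of the hypoxia response; strong numbers were not always called active; many hits fall short of the cut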
# Sa RN4220 lethal: growth inhibition of S. aureus RN4220, primary screen, OD600 | 16 h | inhibition, % (test concentration not listed) | 0.33% of 330,000 active | AID 1259311, 2017;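 active = z-score of -3 or lower and OD600 up to 0.18 on both plates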;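 also: plate controls were untreated cells for no effect and reference antibiotic for full effect; stock transfer was 100 nL into about 80 µL; one replicate is shown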
# Mtb hypoxia rep growth: second read-out of Mtb hypoxia rep, no call of its own (marks repeat the call); growth inhibition, %; measured here: M. tuberculosis growth (absorbance);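 0% = vehicle and 100% = reference antibiotic; read after six days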
# Active calls of the source: *; ? = inconclusive; . = no result given.
SMILES,Sa ugtP lethal,PrP 5UTR inh,Bead autofluor,BJeLR lethal,Mtb hypoxia rep,Mtb hypoxia rep growth,Sa RN4220 lethal
CN(Cc1ccc(F)cc1)C(=O)c1ccc(NC(=O)CC2SC(N3CCCC3)=NC2=O)cc1 (configuration not stated),-1.1,2.7,?,-3.2,-3.2,0.0,-1.8
Cc1ccc(OCC(=O)NC(=S)Nc2ccccn2)c(Br)c1,0.6,47.8,6149,4.2,-8.4,-1.0,2.4
O=C(NCc1ccc2c(c1)OCO2)Nc1ccc2ccccc2c1,-4.6,.,.,2.3,-2.8,0.2,-0.5
COc1cc(/C=C2\SC(N)=NC2=O)cc(Br)c1O,0.0,-8.5,.,-8.2,4.6,-2.0,3.8
COc1ccc(CNC(=O)C2CC=CCC2C(=O)O)cc1OC (configuration not stated),-2.2,-20.4,5126,1.5,.,.,2.1
CC(C)Cc1nc2sc3c(=O)[nH]cnc3c2c2c1CCC2,-2.6,-7.8,6802,12.1,-3.7,1.5,-0.6
COc1ccc(/C=C/C(=O)Nc2cc(C(F)(F)F)ccc2Cl)cc1OC,-15.2,-18.0,2551,-10.0,-10.6,4.7,1.7
CSc1nc(N2CCOCC2)cc(N2CCOCC2)n1,8.1,-10.3,3766,5.1,-5.5,1.3,3.9
CCOC(=O)CNC(=O)CSc1nnnn1-c1cc(C)ccc1C,2.2,4.3,2537,-4.1,-1.3,-3.7,14.9
O=c1c2ccccc2cnn1Cc1n[nH]c(=S)n1-c1ccccc1F,2.2,-33.3,13902,-4.0,9.4,6.9,1.2
Cc1nnc(SCC(=O)Nc2nccs2)o1,6.6,-17.7,6657,-13.6,-0.4,2.0,7.3
Cc1ccc(NC(=O)CSc2nnc(N)s2)c([N+](=O)[O-])c1,5.4,-31.8,4197,-12.2,7.0,6.2,6.1
N#CCCn1cc(C(=O)Nc2ccc([N+](=O)[O-])cc2)c(-c2cccs2)n1,-4.8,-10.4,2698,2.5,12.6,6.5,-5.3
COc1ccc(COC(=O)NNC(=O)c2ccccc2Cl)cc1,-0.1,-9.7,2419,6.8,7.1,3.6,5.6
CCOC(=O)C1C(=O)NC(c2ccccc2)=NC1c1ccc(C(C)C)cc1 (configuration not stated),1.8,-22.9,4678,8.6,.,.,-3.1
Cc1cccc(C(=O)N/C(=C\c2ccco2)C(=O)N2CCCC2)c1,-5.2,-0.2,5221,4.0,5.3,-0.6,2.6
CCOC(=O)N1CCC(NC(=O)c2cccnc2SC)CC1,-7.6,-17.9,3270,-6.5,11.6,4.7,-12.3
CC(=O)Nc1cccc(-c2nnc3c4ccccc4c(C)nn23)c1,2.9,.,.,-4.0,-10.0,-1.7,10.9
Cc1ccc2nc(C(=O)N3CCc4c([nH]c5ccccc45)C3c3ccccn3)cn2c1 (configuration not stated),6.6,-40.2,4391,-3.4,-2.7,-5.9,0.5
O=C(NN=C/C=C/c1ccco1)c1ccncc1,2.3,.,.,.,13.1,11.4,-0.6
CCNC(=O)NC(=O)C(C)OC(=O)CCS(=O)(=O)c1ccc(C)cc1 (configuration not stated),-73.4,-12.8,3305,-5.3,13.3,7.1,9.7
NC(=O)C1CCN(c2oc(-c3ccccc3)nc2S(=O)(=O)c2ccc(Br)cc2)CC1,12.2,-13.3,?,-3.1,3.9,-1.9,4.9
c1ccc(-c2csc3ncn4cnnc4c23)cc1,1.0,4.4,14985,-0.5,8.4,5.8,0.4
CC(=O)N1c2ccc(S(=O)(=O)NCCc3ccccc3)cc2CC1C (configuration not stated),0.4,2.7,6582,4.6,9.7,-4.6,9.6
CC(C(=O)Nc1cccc(S(=O)(=O)N2CCOCC2)c1)N1CCN(c2ccc(F)cc2)CC1 (configuration not stated),3.5,-28.1,4898,-12.9,4.4,-11.1,0.1

# Laid out differently: 2 of the compounds above
smiles | Sa ugtP lethal | PrP 5UTR inh | Bead autofluor | BJeLR lethal | Mtb hypoxia rep | Mtb hypoxia rep growth | Sa RN4220 lethal
O=C(NCc1ccc2c(c1)OCO2)Nc1ccc2ccccc2c1 | -4.6 | . | . | 2.3 | -2.8 | 0.2 | -0.5
Cc1ccc2nc(C(=O)N3CCc4c([nH]c5ccccc45)C3c3ccccn3)cn2c1 (configuration not stated) | 6.6 | -40.2 | 4391 | -3.4 | -2.7 | -5.9 | 0.5

# Record cards, from the list above. Screens in order: Sa ugtP lethal, PrP 5UTR inh, Bead autofluor, BJeLR lethal, Mtb hypoxia rep, Mtb hypoxia rep growth, Sa RN4220 lethal
# Entry for `CCNC(=O)NC(=O)C(C)OC(=O)CCS(=O)(=O)c1ccc(C)cc1` (configuration not stated) = -73.4, -12.8, 3305, -5.3, 13.3, 7.1, 9.7
# Entry for `Cc1ccc2nc(C(=O)N3CCc4c([nH]c5ccccc45)C3c3ccccn3)cn2c1` (configuration not stated) = 6.6, -40.2, 4391, -3.4, -2.7, -5.9, 0.5

# (list continues)
SMILES,Sa ugtP lethal,PrP 5UTR inh,Bead autofluor,BJeLR lethal,Mtb hypoxia rep,Mtb hypoxia rep growth,Sa RN4220 lethal
COc1ccc(-n2nc(C(=O)Nc3ccc4c(c3)OCO4)c3ccccc3c2=O)c(OC)c1,-7.5,2.8,2138,.,.,.,2.2
CCOc1cccc2sc(N(CCN(CC)CC)C(=O)c3cccc([N+](=O)[O-])c3)nc12,0.2,-1.3,.,-5.9,4.3,-8.3,4.8
Cc1ccc(-c2nnn(CC(=O)N3CCCCC3)n2)c(-n2cnnn2)c1,1.2,-17.4,3473,-6.7,3.8,11.6,5.2
NC(=Nc1ccccc1)Nc1ccccc1,1.7,-22.3,3042,2.1,4.8,5.6,1.0
C/C(=N\O)C(=O)C(CN1CCCCC1)CN1CCCCC1,.,-21.0,6562,10.5,.,.,.
O=C(COc1ccc(C(=S)N2CCC(Cc3ccccc3)CC2)cc1)N1CCOCC1,5.8,-26.6,5998,3.8,14.3,11.6,3.0
COc1cccc(CNCC(O)COc2ccc(C(=O)c3ccccc3)cc2)c1 (configuration not stated),1.2,-10.4,6149,-2.6,-2.8,1.6,3.1
CN(C)c1nc2ccccc2n(C)c1=O,4.0,-2.3,2014,5.3,3.9,2.6,2.2
COCCN(C(=O)COC(=O)CCc1ccc(OC)cc1)c1c(N)n(Cc2ccccc2)c(=O)[nH]c1=O,2.6,-13.6,5849,-9.3,-7.4,-4.4,0.6
Cc1c(C(=O)NN=Cc2ccoc2)cccc1[N+](=O)[O-],6.1,.,.,.,-1.4,1.0,2.3
Cc1ccc(C)c(NC(=O)c2cc(-c3cc(C)cc(C)c3O)n[nH]2)c1,99.5*,-5.8,4320,0.1,2.3,-1.5,-11.3
Cc1ccc(CC(SCc2ccccc2)C(=O)O)cc1C (configuration not stated),12.0,-24.4,3888,-17.5,16.3,-4.2,12.9
Cc1noc(C)c1COC(=O)c1cc(F)c(F)cc1Cl,-1.5,-10.1,3945,3.9,.,.,5.3
COc1ccc(-c2nsc(SCC(=O)NCc3ccc4c(c3)OCO4)n2)cc1,10.1,-14.6,2430,-25.0,9.9,5.4,1.5
NC(=O)CC(NC(=O)Cc1cccc2ccccc12)c1ccc(NC2CCN(Cc3ccccc3)CC2)c([N+](=O)[O-])c1 (configuration not stated),6.3,-15.5,4152,-6.1,6.3,6.7,3.7
O=C(c1cnn2cccnc12)N1CCN(Cc2ccc3c(c2)OCO3)CC1,-1.3,-24.9,5727,0.1,5.2,13.9,1.4
CC(C(=O)c1ccc(Br)cc1)[n+]1cccc(NC(=O)c2ccccc2)c1 (configuration not stated),-5.2,-5.1,2596,-3.3,4.5,-2.8,1.8
CCN(CC)CCCn1c2c(c(SCC(=O)N3CCc4ccccc43)nc1=O)CCC2,-1.0,-4.2,?,2.1,4.7,6.9,3.7
Cc1ccccc1COc1ccc(-c2nnn(CC(=O)O)n2)cc1,.,-29.1,3766,-0.4,.,.,.
C=CCn1c(SCc2nc3sc(C(=O)O)c(C)c3c(=O)[nH]2)nnc1-c1ccc(F)cc1,14.7,-13.0,2714,-7.7,11.6,-2.4,6.3
CSc1ccc(CN(C)Cc2nc3ccccc3c(=O)[nH]2)cc1,2.3,-16.8,3482,0.1,7.6,-6.4,1.7
O=C(CCn1ccnc1)Nc1cc(Cl)ccc1O,-0.9,-2.3,4300,1.8,-3.9,-3.8,0.6
COc1cc(Cl)c(C)cc1NC(=O)COC(=O)C=Cc1c(C)nn(C2CCS(=O)(=O)C2)c1Cl (configuration not stated),-0.4,.,.,.,17.0,13.3,7.1
CC(=O)c1c(N=CN(C)C)nc(C)nc1-c1ccccc1,-5.5,-0.8,2478,-8.5,1.3,3.3,-17.1
O=C(COC(=O)COc1ccccc1F)Nc1cccc(S(=O)(=O)N2CCCCC2)c1,1.4,-2.2,4921,.,0.3,1.0,2.4

# (listing goes on)
SMILES,Sa ugtP lethal,PrP 5UTR inh,Bead autofluor,BJeLR lethal,Mtb hypoxia rep,Mtb hypoxia rep growth,Sa RN4220 lethal
Cc1ccc2nc(NC(=S)NC(=O)c3ccc(OC(C)C)cc3)sc2c1,-2.1,-18.6,4802,4.5,15.2,5.2,3.4
COc1ccc(OCCCC(=O)Nc2ccc(OC)c(S(=O)(=O)N3CCOCC3)c2)cc1,0.7,-11.9,8736,.,2.7,-8.3,2.2
O=C(NCc1ccccc1)c1ccc(Br)o1,11.5,-11.8,2918,.,.,.,8.1
COc1ccc(/C=N/NC(=S)Nc2ccccc2)cc1COc1ccc(Br)cc1,.,3.2,4604,-2.6,.,.,.
CN1C(=O)/C(=C/C=C2/CCCN2C)N(C)C1=S,2.9,-31.9,2623,-3.4,13.4,4.6,5.9
COc1cc(COc2ccc3c(C)c(Cc4ccccc4)c(=O)oc3c2C)cc(OC)c1OC,-10.3,-4.5,3955,4.9,12.5,7.2,-3.8
Cc1ccc2cc3cc(C(=O)N4CCCCCC4)oc3nc2c1,-0.4,-62.6,4637,-3.5,0.7,13.9,5.1
COc1ccc(S(=O)(=O)N(CC(=O)N/N=C/c2cccs2)c2cc(C)cc(C)c2)cc1OC,.,-5.6,10998,-9.2,.,.,.
CCCCNC(=O)O[C@@H]1C[C@H]2CCC(=O)N3CC[C@@H](C1)[C@@H]23,.,-8.2,3425,-1.7,.,.,.
O=C(Nc1cccc([N+](=O)[O-])c1)C1C2/C=C\CCCCC21 (configuration not stated),4.3,-24.2,3896,4.1,9.0,5.0,7.2
Cc1ccc(-n2c(C)nn(-c3ncc(C(F)(F)F)cc3Cl)c2=O)cc1,2.0,-4.0,3066,1.3,.,.,1.2
CCOc1ccccc1NC(=O)Cn1c(=O)sc2ccccc21,4.1,-6.9,4507,2.8,11.9,6.6,0.1
CCc1nccn1S(=O)(=O)c1cc(C)c(OC)cc1C,-0.8,-15.0,10486,-3.8,-0.8,4.5,2.0
CCCOc1ccc(C(=O)OCC(=O)c2c(N)n(C)c(=O)n(C)c2=O)cc1OCC,6.6,5.2,2996,11.2,14.5,3.0,10.0
CN1C(=O)Cc2cc(S(=O)(=O)N3CCN(c4cccc(Cl)c4)CC3)ccc21,1.9,-8.8,5410,-10.0,1.6,2.4,2.4
COCCNC(=S)NN=Cc1ccc([N+](=O)[O-])cc1,2.1,.,.,.,17.0,1.6,3.8
CCN(CC)S(=O)(=O)c1ccc(Cc2ncc(C(F)(F)F)cc2Cl)s1,6.8,-2.8,3590,28.7,.,.,8.9
Cc1ccc(C)c(N2CCN(C(=O)c3cc(S(=O)(=O)N4CCOCC4)ccc3F)CC2)c1,5.8,-18.7,2428,2.1,4.9,7.0,7.6
COCc1cc(C=NNC(=O)COc2ccc(Cl)cc2)ccc1OC,-1.1,.,.,.,4.6,3.1,8.0
COc1ccc(Cl)cc1NC(=O)CSc1nnc(Cc2ccc(C)cc2)c(=O)[nH]1,3.9,-12.9,4157,0.6,2.0,8.8,15.1
O=C(c1sccc1Br)N1CCN(Cc2ccc3c(c2)OCO3)CC1,0.1,-33.0,3873,8.7,10.2,14.0,-3.6
Cc1nc2cc(NC(=O)N3CCCCC3)ccc2n1C,-4.9,-31.8,2974,-13.1,5.5,3.1,3.9
Nc1nc2n(n1)C(c1ccc(F)cc1)CC(c1ccc(F)cc1)N2 (configuration not stated),-2.2,-14.2,16072,1.4,-4.7,-5.9,0.4
O=C(Oc1ccccc1N1C(=O)CCC1=O)c1ccco1,6.5,-6.9,4691,3.4,.,.,2.0
Cc1cc(C)c(NC(=O)NC(=O)c2ccc(F)cc2)c(C)n1,4.7,-29.2,3416,6.8,.,.,2.3
COc1cc(/C=N/NC(=O)c2c(C)nnn2-c2nonc2N)ccc1O,.,-1.7,1936,5.6,.,.,.
